Screening results from PubChem.
miR-21 reporter: miR-21 reporter, rising signal. HeLa miR-21 FLuc reporter, luciferase, 48 h. Potency, µM (titrated, usually from 38.3 µM), for the others: top-dose reporter change, positive = more light. 340,000 tested, under 10 active. AID 2288; active = well fitted rising curve with a large enough effect; inconclusive = small, poorly fitted or top-dose-only effect; inactive = no such curve, though single readings can be large or run the other way;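 also: % of control where 0% means no effect; miR-21 action dims this reporter so a rising signal means less miR-21 action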
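Compounds were titrated across several concentrations (up to approximately 40 uM) and incubated 48 hours with HeLa miR-21-FLuc reporter cells (miR-21 target sequence downstream of FLuc, endogenous miR-21). Readout was firefly luciferase luminescence after lytic detection reagent.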
Rango release inh: inhibition of RanGTP-driven Rango-importin beta dissociation. O95149+P62826. Potency, µM (titrated, usually from 46.1 µM), inactives show at the highest dose activity change, negative = inhibition. AID 540253. 0.071% of 340,000 active. Biochemical FRET Rango-importin beta, RanGTP-induced dissociation; active means falling FRET ratio curve, often poorly fitted, with flat reads before Ran was added; inconclusive means other falling curves, or compound fluorescence or quenching; inactive means flat or rising ratio curve;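 also: potency is read from the fitted curve at half-maximal effect; % of control where 0% means no effect; nearly all actives have a fitted effect of over 45% in size; -100% = wells without RanGTP and RCC1; the record marks most hits as doubtful in a second field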
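Quantitative HTS using a FRET biosensor: 0.1 uM Rango, 0.25 uM importin beta, 0.6 uM Ran, 2 mM GTP, 0.2 uM RCC1 final, PBS with DTT, Tween-20 and BSA. Post-read taken 45 min after Ran addition.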
GLA inh pH 4.5: alpha-galactosidase A (human) inhibition, pH 4.5; P06280; purified enzyme, 4-MU-alpha-Gal fluorescence, pH 4.5; activity change, negative = inhibition, % at 105 µM; 230,000 tested, under 10 active; AID 1467; inconclusive = small, poorly fitted or top-dose-only inhibition, or a rising curve; inactive = flat fitted curve, though single readings scatter; no compound was filed as active;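 also: 0% = full activity with enzyme and -100% = basal without enzyme; dose as in the result columns while the protocol names 77 µM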
Target sequence (P06280 whole entry, looked up): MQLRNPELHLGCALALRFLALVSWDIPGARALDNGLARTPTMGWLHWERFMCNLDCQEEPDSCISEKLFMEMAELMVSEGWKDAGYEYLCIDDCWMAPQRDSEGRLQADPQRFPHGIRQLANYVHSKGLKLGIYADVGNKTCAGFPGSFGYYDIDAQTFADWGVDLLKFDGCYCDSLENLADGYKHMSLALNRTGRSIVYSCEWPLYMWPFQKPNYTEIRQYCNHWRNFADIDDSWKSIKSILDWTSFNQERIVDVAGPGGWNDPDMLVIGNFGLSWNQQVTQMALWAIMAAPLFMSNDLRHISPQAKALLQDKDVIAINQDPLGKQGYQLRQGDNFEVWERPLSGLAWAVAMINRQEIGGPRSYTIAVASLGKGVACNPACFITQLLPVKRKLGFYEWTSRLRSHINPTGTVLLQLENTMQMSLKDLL
Rango-impB inh: prevents formation of the Rango-importin beta complex; Q14974; Rango CFP/YFP FRET sensor + importin beta, 45 min; Potency, µM (top dose mostly 92.2 µM), for inactives: top-dose inhibition of complex formation; 0.031% of 340,000 active; active = rising FRET ratio curve, often small or poorly fitted; inconclusive = mostly compound fluorescence or quenching in the first reads; inactive = flat curves in all reads;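 also: potency is read from the fitted curve at half-maximal effect; 0% = DMSO wells and 100% = buffer wells lacking importin beta; nearly all actives have a fitted effect of over 15% in size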
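FRET biosensor Rango (snurportin 1 IBB between N-terminal EYFP and C-terminal Cerulean), 50 nM in PBS/1 mM DTT/0.02% Tween-20/0.1% BSA, preincubated 5 min RT with compound; 0.125 microM importin beta added, 45 min RT, CFP/YFP FRET ratio read.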
Numbers without * were called inactive; ? = inconclusive; / = no result given; & = joins results of further samples.

miR-21 reporter	Rango release inh	GLA inh pH 4.5	Rango-impB inh	SMILES
0.3%	5.6%	-1.7	-5.5%	C[C@@H](CN1C2=NC[C@H](C)N2C[C@H]1Cc1ccc(O)cc1)NC(=O)CCC1CCCCC1
4.1%	8.9%	3.9	-2.8%	CCN(CC)C(=S)NCCc1ccccc1
/	-18.8%	/	-2.3%	COc1ccccc1CNC(=O)COC(=O)c1cccc(S(=O)(=O)N2CCOCC2)c1
-6.4%	-7.7%	6.5	3.5%	Cc1nc(NC(=O)/C=C/c2ccccc2)sc1C(=O)Nc1ccccc1
-8.1%	1.4%	7.7	0.1%	Cc1cc(C)cc(NCc2cc(=O)oc3cc(-c4ccccc4)c(O)cc23)c1
-2.3%	9.4%	-0.3	0.6%	CCCCC(=O)NC(=O)NC(c1ccccc1)c1ccccc1
-9.2%	-2.9%	/	1.6%	Cc1ccc2nc(-c3ccccc3NC(=O)CCC(=O)O)c(=O)[nH]c2c1
-2.1%	-6.0%	1.5	0.7%	O=C1CCCC2=C1C1(O)C(=O)c3ccccc3C1(O)O2 (stereo not given)
9.0%	-3.8%	/	0.3%	CCC1Oc2ccc(C)cc2N(CC(=O)N2CCOCC2)C1=O (stereo not given)
-3.9%	-3.4%	-3.2	-0.1%	CCN(CC)S(=O)(=O)c1cccc(C(=O)OCC(=O)NC(C)c2ccccc2)c1 (stereo not given)
-0.3%	6.6%	1.6	4.1%	Cc1ccc2[nH]c(=O)c(C(c3nnnn3C(C)(C)C)N3CCN(C(=O)c4ccco4)CC3)cc2c1 (stereo not given)
-1.8%	-2.0%	3.1	-0.9%	CCn1c(SCC(=O)O)nc2ccccc21
7.9%	-5.2%	-11.8	2.7%	CC(NC(=O)COC(=O)c1cc(NS(=O)(=O)c2ccc(Cl)c([N+](=O)[O-])c2)ccc1O)C1CC2CCC1C2 (stereo not given)
-0.9%	-12.5%	3.8	?	CC(=O)Nc1ccccc1Sc1ccc2c3c(cccc13)C(=O)N(c1ccc(C)cc1)C2=O
-2.1%	-16.4%	/	-4.7%	Cc1ccc(NCc2nc(SCC(=O)Nc3ccccc3)n[nH]2)cc1
/	10.2%	/	1.7%	CNC[C@H]1Oc2ccc(NC(=O)C3CCCCC3)cc2CC(=O)N([C@H](C)CO)C[C@@H]1C
-11.5%	4.6%	2.8	0.3%	O=C(O)CCSc1nc2ccccc2n1CCOc1ccccc1
/	11.2%	/	0.5%	CCc1ccccc1NS(=O)(=O)c1cc2c3c(c1)CCN3C(=O)CC2
-30.2%	14.5%	-11.3	-5.1%	CC(C)Oc1cccc(OCCN2C(=O)c3ccccc3C2=O)c1
-2.6%	-0.3%	12.9	0.9%	CCOc1ccc(NC(=O)c2sc(N3CCOCC3)nc2-c2ccccc2)cc1
-0.6%	?	3.6	3.5%	O=C(CSc1nnc(Cc2cc(=O)[nH]c(=O)[nH]2)n1-c1ccccc1)N1CCCCC1
/	-0.9%	/	-0.4%	O=C(CCCOC(=O)c1ccc(O)cc1O)c1ccc(F)cc1
/	0.2%	/	-1.8%	CC(OC(=O)c1ccccc1C(=O)O)c1ccccc1 (stereo not given)
1.0%	13.8%	/	-1.2%	COc1ccc(C(=O)N/C(=C\c2ccccc2)C(=O)N2CCOCC2)cc1
-8.1%	-0.9%	-3.6	-0.1%	CCOC(=O)CC(NC(=O)c1cc2cc(Br)ccc2oc1=O)c1cccc([N+](=O)[O-])c1 (stereo not given)
-7.9%	5.0%	1.3	-6.5%	O=C1CCCc2sccc2N1
/	-10.8%	/	-2.9%	Cc1ccc(NS(=O)(=O)c2ccc(C(=O)N3CCCCCC3)cc2)cc1
15.3%	11.4%	/	-0.3%	O=C(NCC(=O)N1CCCC(C(F)(F)F)C1)c1ccc(Oc2ccccc2)cc1 (stereo not given)
-1.7%	0.2%	-7.4	1.6%	CCOC(=O)C1CCN(C(=O)COc2ccc(S(=O)(=O)NC(C)(C)C)cc2)CC1
1.0%	-2.6%	-3.0	-0.6%	CC[n+]1c(C)sc2c3ccsc3ccc21
2.5%&-3.0%	-15.2%	5.3	0.3%	Cn1c(=O)c(=O)n(C)c2cc(S(=O)(=O)N3CCN(c4ccc(F)cc4)CC3)ccc21
0.7%	-7.0%	-1.3	0.7%	CN(CC(=O)N1CCN(c2cccc(Cl)c2)CC1)S(=O)(=O)c1cccs1
2.5%	1.0%	/	-1.0%	NC(=O)c1cc(S(=O)(=O)NCCCc2ccccc2)cs1
-75.9%	?	-6.6	?	CC(=O)c1sc2nc(-c3ccco3)ccc2c1N
0.3%	5.7%	-7.4	3.9%	COc1ccc(C(=O)NC(=S)NCc2ccccc2)cc1OC
-2.5%	-14.8%	/	-1.1%	O=C(NCCN1CCOCC1)C1CC(=O)N(c2ccc(F)cc2)C1 (stereo not given)
-3.3%	-2.1%	8.4	-2.6%	Cc1ccc(-n2c(SCC(=O)Nc3ccc4c(c3)OCCO4)nnc2-c2ccco2)cc1
/	10.1%	/	2.7%	CCOc1ccc2oc(C(=O)N3CCCN(C)CC3)c(C)c2c1
-0.1%	-10.2%	/	-1.6%	COc1ccc2c(C)c(CC(=O)N3C[C@H]4C[C@@H](C3)c3cccc(=O)n3C4)c(=O)oc2c1OC
-0.6%	-10.0%	3.4	-0.3%	O=C(c1ccco1)N1CCN(C(=O)c2cc3cc([N+](=O)[O-])ccc3oc2=O)CC1
-1.3%	-0.2%	/	-1.1%	CC1CCN(C(=S)NC(=O)c2ccc(C(C)(C)C)cc2)CC1
-10.2%	-28.7%	12.3	?	Cc1ccc(-c2cc(C(=O)NCc3ccco3)c3ccccc3n2)s1
0.5%	/	-3.7	/	CC12CC(NC(=O)N1c1cccc(C(=O)NCc3ccccc3)c1)c1ccccc1O2 (stereo not given)
-1.2%	9.1%	/	1.1%	Cc1ccccc1N1CCN(C2CCCN(C(=O)CCn3cnnn3)C2)CC1 (stereo not given)
-0.3%	0.2%	2.3	-2.2%	CCc1nnc(NC(=O)CSc2nnc(C3CCCCC3)n2-c2ccccc2)s1
-19.3%	-0.9%	/	-2.8%	Cc1ccc(NC(=O)CN(C)C(=O)Cc2ccc(Cl)c(Cl)c2)cc1
-5.4%	2.2%	-0.6	-0.4%	COc1cc2c3c(c1OC)C1(C=CC(=NNC(N)=O)C=C1)CC3N(C(C)=O)CC2 (stereo not given)
-5.7%	0.0%	7.0	-1.0%	CC(=O)NNC(=S)Nc1cc(S(=O)(=O)N(C)C)ccc1C
1.7%	3.1%	-8.1	-1.4%	C/C(CC(=O)NC(C)c1ccccc1)=N\NC(N)=S (stereo not given)
0.7%	11.7%	/	-3.8%	CCOC(=O)[C@@H]1[C@H]2COc3ccc(Br)cc3[C@@H]2N2C(=O)N(c3ccccc3)C(=O)[C@@]12C

Other entries follow:
miR-21 reporter	Rango release inh	GLA inh pH 4.5	Rango-impB inh	SMILES
0.2%	2.6%	8.8	-5.5%	CN(C)S(=O)(=O)c1cc(NC(=O)CN2CCOCC2)ccc1Cl
-1.4%	0.5%	3.2	1.6%	CCOC(=O)N1CCC(NC(=O)CN2C(=O)C(CC)Oc3ccc(C)cc32)CC1 (stereo not given)
-47.3%	2.8%	0.7	3.5%	N#Cc1nc(-c2ccc(Cl)cc2)oc1NCC1CCCO1 (stereo not given)
0.1%	-6.2%	/	0.4%	COc1ccccc1C(=O)N(C1=NC(C)CS1)c1ccc(Cl)cc1 (stereo not given)
-30.3%	-10.1%	-4.8	-2.0%	Cc1cc(C)n2nc(SCC(=O)c3ccccc3)nc2n1
-0.7%	?	-6.5	?	O=c1[nH]c2cc3c(cc2cc1C(c1nnnn1CC1CCCO1)N1CCCCCC1)OCCO3 (stereo not given)
12.8%	?	-5.7	?	O=C(NCCO)c1cccc(Nc2nc(-c3ccccc3)c3cc(Cl)ccc3n2)c1
-54.9%	-20.0%	/	-3.3%	O=C(Nc1ccc(N2CCCC2)cc1)c1cc2ccccc2o1
-0.5%	0.6%	/	-1.9%	CCOc1ccc(N(CC(=O)NCCOc2ccc(C)cc2)S(=O)(=O)c2ccccc2)cc1
1.7%	-5.2%	/	-6.7%	O=C(c1ccc(S(=O)(=O)N2CCOCC2)cc1)N1CCc2ccccc21
4.3%	9.8%	/	0.4%	CC1CCCCN1C(=O)c1cc(S(=O)(=O)N2CCCCC2)c[nH]1 (stereo not given)
-70.6%	-9.0%	2.7	?	O=c1cccccc1NN=C1CCCCCC1
3.1%	-3.2%	/	?	Cc1ccc(S(=O)(=O)Cc2ccc(C(=O)NC3CCCCCC3)o2)cc1
-31.1%	5.5%	-10.0	8.2%	COc1cc(/C=N/NC(=O)NC2CCCCC2)cc(OC)c1O
/	8.4%	/	-1.8%	Cc1cc(Cl)cc(C)c1OCC(=O)NC1CCCCCC1
-1.6%	-21.3%	1.5	2.2%	CC(NC(=O)c1cc2ccccc2o1)C(=O)O (stereo not given)
-14.3%	26.7%	4.8	-0.6%	O=C(Nc1nc(-c2ccc(Cl)s2)cs1)c1ccccc1
-4.7%	-6.0%	-3.6	0.0%	COC(=O)CCC(=O)CN
14.8%	?	/	?	CCN(CC)c1ccc(/C=N/NC(=O)CNC(=O)C2COc3ccccc3O2)c(O)c1 (stereo not given)
/	51.0%	/	-0.8%	O=C(C=Cc1cccc(O)c1)c1ccccc1O
-2.8%	-2.1%	/	-5.7%	COc1ccccc1OCc1nnc(SCC(=O)N2CCCCC2)o1
3.7%	11.8%	/	-4.3%	CCOc1ccc(N(CC(=O)NCc2ccco2)C(=O)CCC(=O)Nc2nccs2)cc1
-5.5%	-11.8%	-9.7	0.7%	CCCn1c(N)c(C(=O)CSc2nnc(C3CC3)n2Cc2ccccc2)c(=O)[nH]c1=O
0.1%	7.0%	3.6	0.8%	CC(C)NC(=O)c1cc(-n2cnnc2)ccc1Cl
-2.8%	-24.8%	2.9	?	Cc1oc(-c2ccoc2)nc1CN(CC1CCC(=O)N1)C(C)C (stereo not given)

Full records as entered above.
COC(=O)CCC(=O)CN in the list: miR-21 reporter: -4.7%; Rango release inh: -6.0%; GLA inh pH 4.5: -3.6; Rango-impB inh: 0.0%
COc1ccccc1C(=O)N(C1=NC(C)CS1)c1ccc(Cl)cc1 (stereo not given) in the list: miR-21 reporter: 0.1%; Rango release inh: -6.2%; GLA inh pH 4.5: /; Rango-impB inh: 0.4%

Remaining list, next part:
miR-21 reporter	Rango release inh	GLA inh pH 4.5	Rango-impB inh	SMILES
3.1%	5.7%	/	-1.0%	COc1ccc(C2c3c(n[nH]c3C)CC(C)(O)C2C(C)=O)cc1OC (stereo not given)
-2.7%	-4.5%	0.5	5.9%	CCOC(=O)N1CCN(C(=O)CN(c2ccc(OCc3ccccc3)cc2)S(C)(=O)=O)CC1
-6.8%	0.5%	?	0.2%	Cc1ccc(-c2cn3cccnc3n2)cc1NC(=O)c1ccc(Br)o1
-10.2%	-1.6%	/	0.8%	Cc1nc(SCc2ccccc2C#N)n[nH]1
/	-6.5%	/	2.1%	O=C(NNC(=O)C12CC3CC(CC(C3)C1)C2)c1ccccc1O
-8.4%	0.0%	/	-0.4%	Cc1ccc(S(=O)(=O)Nc2ccc(N3CCOCC3)cc2)cc1C
/	-14.5%	/	0.5%	C[C@H]1COC(=O)[C@@H](Cc2ccc(F)cc2)C/C=C\C[C@@H](CC(=O)N[C@@H](CO)Cc2ccccc2)C(=O)N1
8.1%	-6.4%	2.9	0.0%	O=C(Nc1cccc(S(=O)(=O)Nc2ccccc2F)c1)c1ccc2ccccc2n1
-32.3%	-0.6%	-1.1&-2.3	4.8%	CC1(C)CC(=O)c2c(oc3cc(O)c(O)cc23)C1
-7.2%	7.5%	?	-5.0%	Cc1ccc(OCc2nnc(SCC(=O)Nc3ccc4c(c3)OCO4)n2C)cc1
/	36.0%	/	0.9%	COCCCOc1cc(NCc2ccccc2)c2ncn(C(C)C)c2c1
-3.2%	19.4%	5.5	0.2%	O=C(NCc1ccccc1)C1CCC(CNc2c(N3CCCCC3)c(=O)c2=O)CC1 (stereo not given)
0.0%	/	5.9	/	CCCCCCCCCCC(=O)Nc1cccnc1
/	18.4%	/	0.1%	O=C(COC(=O)c1ccccc1)NC1CCCCCC1

These rows are one share of the data. The share of hits here may be higher or lower than overall.
